Compound activity (PubChem)
Env fusion inh: inhibitors of HIV-1 Env-driven cell-cell fusion, primary screen, HeLa-JRFL effector, CEM21 target cells, luciferase; inhibition, % at 12.3 µM; actives 1.1% (n = 360,000); AID 651610, 2012;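 active = mean replicate inhibition score of at least 50 and every replicate individually at or above 50; inconclusive = only one of the two criteria met; inactive = mean below 50 and not all replicates reaching 50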;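 note: 0% = plate neutral controls and 100% = maraviroc near 300 nM; one replicate is shown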
MT1-MMP act inh: blockers of MT1-MMP proenzyme processing, primary screen, HT1080 RFP-PRO-GFP cells, GFP/RFP fluorescence | actives 0.061% (n = 360,000) | GFP/RFP ratio fluorescence, overnight; percent of plate control window, DMSO zero | GFP/RFP ratio change, % at 20 µM | AID 651647, 2012;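 active = GFP/RFP ratio change of at least 30% with cell ATP level not reduced by more than half and red fluorescence within 50% of control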; note: strong numbers were not always called active
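Assay system: HT1080 RFP-PRO-GFP cells | Dosing: 20 µM single dose, 1% DMSO | Incubation: Cells overnight before dosing, compound overnight, 37 °C, 5% CO2 | Evaluation: GFP/RFP fluorescence ratio | Control set: DMSO-only wells and HT1080 RFP-L50D-GFP cell wells as references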
UUG fidelity: modulators of yeast start codon fidelity, primary screen, whole organism, S. cerevisiae, single point, plate reader. S. cerevisiae UUG-firefly luciferase reporter, luminescence/redox ratio. activity score, % at 18.7 µM. actives 0.13% (n = 350,000). AID 602363, 2012;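 active = replicate mean at a twofold rise or more, about +100% in these data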;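 note: firefly luciferase made from a UUG start codon reports start codon fidelity; reporter light over untreated wells divided by growth signal over untreated wells; some hits fall short of that in this replicate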
eIF4H inh: human eIF4H binding inhibitors, primary screen, translation initiation inhibitor project, biochemical, uHTS, fluorescence polarization; Eukaryotic translation initiation factor 4H (Homo sapiens), Q15056; eIF4H fluorescence polarization binding assay; inhibition, % at 35 µM; actives 0.94% (n = 290,000); AID 2012, 2009;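 active = 50% or more with normal probe brightness, or confirmed in later tests; inconclusive = above 50% with abnormal brightness, or retests that disagree; inactive = below 50% or failed in later tests; about a fifth of its hits are not listed in these tables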;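 note: calls also rest on retests at 20 µM and on dose response follow-up; 0% = protein and probe with vehicle and 100% = probe without protein; strong numbers were not always called active; many hits fall short of the cut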
PABP polyA inh: PABP poly(A) RNA binding inhibitors, primary screen, biochemical, fluorescence polarization, uHTS | actives 1% (n = 290,000) | AID 2014, 2009 | inhibition, % at 35 µM | Polyadenylate-binding protein 1 (Homo sapiens), P11940;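 active = 50% or more with normal probe brightness, or confirmed in later tests; inconclusive = above 50% with abnormal brightness, or retests that disagree; inactive = below 50% or failed in later tests; about a fifth of its hits are not listed in these tables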;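 note: calls also rest on retests at 20 µM and on dose response follow-up; controls were probe without protein and protein plus probe with vehicle; some compounds called inactive have numbers as strong as hits; many hits fall short of the cut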
CSC inhib: cancer stem cell viability inhibitors, primary screen, luminescence; cancer stem cell-like cells viability; actives 1.1% (n = 300,000); AID 2717, 2010; inhibition, % at 7.5 µM;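 active = mean at 75% or more and at least half the replicates too; inconclusive = mean and replicates disagree; tested in HMLE shEcad cells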;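 note: 0% = median of negative and 100% = median of positive control wells; the first replicate is given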
Rce1 inhib: yeast Rce1p protease inhibitors, primary screen, biochemical, fluorescence, cell-free homogeneous | actives 0.27% (n = 290,000) | yeast membranes, quenched prenylated peptide cleavage fluorescence | calls only | AID 2563, 2010 | CAAX prenyl protease 2 (Saccharomyces cerevisiae (strain ATCC 204508 / S288c)), Q03530;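 active = fall in fluorescence gain of 50% or more versus controls, with final raw signal at or below 3038400; inconclusive = same 50% fall but final raw signal above 3038400; inactive = fall in fluorescence gain under 50%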;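 note: plate controls were neutral control wells for no effect and wells lacking membranes for full effect; tested at 10 µM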
Target sequence (Q03530 whole entry, looked up): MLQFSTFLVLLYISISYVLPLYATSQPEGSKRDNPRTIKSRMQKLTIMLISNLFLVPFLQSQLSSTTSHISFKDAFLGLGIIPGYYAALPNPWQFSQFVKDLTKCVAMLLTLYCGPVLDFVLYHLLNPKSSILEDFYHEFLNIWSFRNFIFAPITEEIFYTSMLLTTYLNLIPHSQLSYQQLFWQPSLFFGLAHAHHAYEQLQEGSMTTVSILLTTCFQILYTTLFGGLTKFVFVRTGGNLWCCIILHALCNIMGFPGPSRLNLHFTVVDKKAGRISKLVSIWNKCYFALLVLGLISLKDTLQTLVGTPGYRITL
eIF4H inh retest: further read-out of eIF4H inh, marked with its call; inhibition, %; compound at 20 µM; confirmation average;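 mean of two retest wells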
PABP polyA inh retest: further read-out of PABP polyA inh, marked with its call; inhibition, %; compound at 20 µM; confirmation repeats;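 mean of two retest wells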
MT1-MMP act inh RFP: further read-out of MT1-MMP act inh, marked with its call; RFP signal change, %; measured here: RFP expression control read;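 0 = vehicle wells; hits needed this value within 50% of zero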
Active calls of the source: *; i = inactive; ? = inconclusive; . = no result given; & = joins results of further samples.

SMILES	Env fusion inh	MT1-MMP act inh	MT1-MMP act inh RFP	UUG fidelity	eIF4H inh	PABP polyA inh	CSC inhib	Rce1 inhib	others
O=C(c1ccc(F)cc1)N1CCCCC(Sc2nnnn2-c2ccccc2)C1=O (stereo not given)	.	-5	1	-14	-9	7	0	i
NC(N)=NS(=O)(=O)c1ccc(NC(=S)NC(=O)/C=C/c2cccs2)cc1	-18	2	2	.	1	2	-9	i
O=C(COC(=O)Cc1ccc(S(=O)(=O)N2CCOCC2)s1)Nc1ccc(F)cc1F	1	-2	6	-14	.	.	-16	.
CCN(CC)CCn1c2c(c(SCC(=O)Nc3cc(C)ccc3C)nc1=O)CCC2	-9	-2	-2	-6	.	.	-7	i
CSc1ccccc1NC(=O)c1ccco1	-136	1	5	-12	1	-2	-5	i
O=C(O)C[C@H]1c2cc(C(F)(F)F)ccc2S(=O)(=O)N1C1CCCC1	-9	2	3	37	.	.	-11	i
CCOc1cc2[nH]c(=O)n(CCCN3CCN(c4ccc(OC)cc4)CC3)c(=O)c2cc1OCC	9	1	-4	-8	-14	-12	8	i
COc1ccc(CNC(=O)c2[nH]c(C)c(C(C)=O)c2C)cc1	4	-1	-3	-19	7	-9	.	i
Clc1cccc(N2CCN(c3nnnn3-c3ccccc3)CC2)c1	-44	1	-2	-10	-8	-2	19	i
CCOC(=O)CCC(NC(=O)CCCC(=O)NC(CCC(=O)OCC)C(=O)OCC)C(=O)OCC (stereo not given)	-7	-1	2	.	-5	-12	4	i
CN(C)C1=NC[C@H](Cc2ccccc2)N1CCc1cccc(F)c1	8	-2	3	-7	.	.	4	.
O=C1CN(C(=O)COC(=O)c2ccc(Cl)cc2)c2ccccc2N1	37	3	2	-17	.	.	.	.
O=C(NCCOc1ccccc1F)c1ccccc1SCc1ccc(F)cc1	3	1	3	15	-4	6	-10	i
CN(Cc1ccco1)S(=O)(=O)c1nnc(NC(=O)c2cccc(Cl)c2)s1	-13	-2	-1	-18	.	.	32	i
CCSc1nnc(-c2ccc(S(=O)(=O)N3CCCC3)cc2)n1C	-3	2	1	-12	-10	-1	0	i
C[C@H]1COC(=O)[C@H](CC(=O)OC(C)(C)C)C/C=C\C[C@@H](CC(=O)N[C@H](CO)Cc2ccccc2)C(=O)N1	6	4	0	-12	.	.	-29	.
C=CCOc1ccccc1CNc1ccccc1C	16	0	-7	.	0	-4	-9	i
COc1ccc(CCN=C(C)c2cc(C)c(C)cc2O)cc1OC	0	-1	2	0	-3	9	-12	i
COc1ccc(NC(=S)NC2CCCCCC2)c(OC)c1	-9	3	3	.	3	-9	4	i
COc1cc(/C=C2/C(=N)N3C(=NC2=O)SN=C3S(C)(=O)=O)ccc1OC(=O)c1ccco1	-8	-53	1	-21	17	13	-15	i
Nc1n[nH]c2cccc(Cl)c12	1	-10	-6	.	1	13	-2	.
COc1ccccc1CC(=O)Nc1ccc(-c2noc(COc3ccc(Cl)c(C)c3)n2)cc1	8	6	3	-7	-2	-8	11	i
COC(=O)NNC(=S)Nc1ccc(Br)cc1	-10	1	3	-39	2	-6	-2	i
CC1CC(C)CN(S(=O)(=O)c2ccc(C(=O)OCC(=O)Nc3ccccc3)cc2)C1 (stereo not given)	2	1	1	-11	.	.	.	.
c1ccc2c(c1)sc1nnnn12	-84	-3	5	-15	5	-4	-9	i
CCOc1ccc(Cl)cc1-c1cc(C(=O)NC2CCCCC2)[nH]n1	-34	-3	-10	3	.	.	.	.
CC(=O)Nc1ccc(S(=O)(=O)N2CCC(C(=O)c3ccc(F)cc3)CC2)cc1	-8	-3	-13	17	-6	-2	.	i
Cc1cc(O)c(N=Cc2cc3c(cc2[N+](=O)[O-])OCO3)cc1C	-4	1	5	.	.	.	2	i
COc1ccc(CNC(=O)CC2C(=O)NCCN2CC(C)(C)C)c(OC)c1 (stereo not given)	15	-1	3	.	13	-1	-7	.
O=S(=O)(c1ccc2c(c1)OCCO2)C1CCC(S(=O)(=O)c2c(F)cccc2F)CC1 (stereo not given)	32	2	5	-7	.	.	.	.
Cc1ccc(S(=O)(=O)CCNC(=O)Cc2ccccc2)cc1	-14	-1	-1	-3	8	-10	-6	i
Cc1cc(C(=O)NC2CCCCC2)c(C)n1-c1ccc(F)cc1	-277	6	-3	-32	-1	-8	14	i
COc1ccccc1/C=C\C(=O)NCC(=O)N/N=C/c1ccc(O)cc1O	5	8	1	5	8	9	68	i
Cc1c(C(=O)OCC(=O)N(C)Cc2ccccc2)oc2ccccc12	7	3	-2	13	.	.	-6	.
CCOc1ccc(C(=O)Nc2ccc(S(=O)(=O)Nc3cc(C)on3)cc2)cc1	19	-3	-4	-17	-8	0	-15	i
CCCOc1ccc(-c2c(C(=O)N/N=C/c3ccc(C)cc3)nnn2-c2nonc2N)cc1	-8	2	1	-8	-2	-5	-5	i
CCOC(=O)c1ccc(NC(=S)N(CCCN2CCCC(C)C2)Cc2ccco2)cc1 (stereo not given)	7	-2	1	-16	17	30	-2	i
COc1ccccc1N(CC(=O)NCc1ccccc1)S(=O)(=O)c1cccs1	11	0	-3	-9	.	.	.	.
CCn1c(O)c(N=NC(=O)C2C(=O)NCC2c2ccccc2)c2ccccc21 (stereo not given)	.	1	2	.	8	1	-14	i
CC1CCCN(C(=O)Cc2cccc3ccccc23)C1 (stereo not given)	18	-3	-1	5	3	0	5	i
Cc1ccccc1NC(=S)N(CCc1c(C)[nH]c2ccc(F)cc12)Cc1cccnc1	14	1	2	.	1	-10	-4	i
CC1=CC(C)(C)n2c(O)c(C3=NC(=S)NC3=O)c3cc(OC(=O)c4cccc5ccccc45)cc1c32	.	7	4	-13	-4	-6	23	i
Cc1cccc(S(=O)(=O)NCCC(=O)OC(C)C(=O)NC(=O)NC2CCCCC2)c1 (stereo not given)	.	1	2	3	10	-7	-3	i
COc1ccc(C)cc1NS(=O)(=O)c1cn(C)nc1C	-14	0	3	.	-2	0	-5	i
O=C(CCS(=O)(=O)c1ccccc1)NC1CCCC1	11	-3	1	-21	-1	4	-6	i
COCc1cc(=O)[nH]c(N2CCN(c3ccccc3OC)CC2)n1	-5	-1	3	-8	70	-6	.	i	eIF4H inh retest=-13;PABP polyA inh retest=7
CC1(C(=O)NCc2ccc(Cl)cc2)CCN1C(=O)c1cccc(F)c1 (stereo not given)	22	0	2	-6	.	.	.	.
O=C(O)CC1=C(c2ccc(F)cc2)CCC1=O	-16	9	8	2	-7	2	-5	i
c1ccc(CCC2CCCCN2Cc2nc(C3CC3)no2)cc1 (stereo not given)	-6	-1	1	.	-5	-6	-8	i
O=S1(=O)N[C@@H](Cc2ccccc2)COc2ccc(Cl)cc21	-23	3	-1	9	.	.	.	.
CC(C)CC1Nc2ncnc(N3CCN(c4ccccn4)CC3)c2N(Cc2ccc(Cl)cc2)C1=O (stereo not given)	.	-5&-13	-11&-15	7&-2	.	.	22	.
C=CCN1CCc2cc(O)c(O)cc2C(c2ccccc2)C1 (stereo not given)	1	2	5	-5	.	.	-9	.
COc1ccc2nc(SCC(=O)N3CCNC3=O)[nH]c2c1	-15	5	6	-29	-8	3	-6	?
CCCCn1nc(C(=O)Oc2ccc3c(C)cc(=O)oc3c2)c2ccccc2c1=O	10	-2	3	.	-4	16	-6	i
Cc1ccccc1NC(=O)CSc1ccncc1	?	2	-4	-6	-2	2	-10	i
CC1=C(C(=O)OCC(C)C)C2(O)C(=O)c3ccccc3C2(O)N1 (stereo not given)	-23	6	5	.	-10	-1	-25	i
CC(C(=O)Nc1cc(C(F)(F)F)ccc1N1CCOCC1)N1C(=O)C2CC=CCC2C1=O (stereo not given)	.	1	3	-21	-4	7	1	i
Cc1cc(NC(=O)c2ccc([N+](=O)[O-])cc2Cl)ccc1NC(=O)c1ccco1	-2	5	0	-10	4	-9	2	i
O=C(C[C@@H]1C[C@@H]2c3cc(NS(=O)(=O)c4ccc(F)cc4)ccc3O[C@@H]2[C@@H](CO)O1)NC1CCCCC1	10	1	1	-10	.	.	.	.
Cc1cccc(NC(=O)C2CCN(C(=O)c3ccccc3C)CC2)n1	-4	-1	4	2	.	.	.	.

Further records
SMILES	Env fusion inh	MT1-MMP act inh	MT1-MMP act inh RFP	UUG fidelity	eIF4H inh	PABP polyA inh	CSC inhib	Rce1 inhib	others
Nc1cc(-c2cccc(F)c2)nn1S(=O)(=O)c1cccc2nsnc12	-22	1	0	-2	-1	-12	-22	i
CC(C)C[C@@H](CNCC(=O)[C@H](CC(=O)O)NC(=O)c1[nH]cnc1C(=O)N[C@H](CN)CC(C)C)NC(=O)c1nc[nH]c1C(=O)N[C@@H](C)C(=O)O	-30	4	4	138*	.	.	.	.
O=C(COc1ccc(Cl)cc1)N1CCN(S(=O)(=O)c2cc(F)ccc2F)CC1	7	-7	-3	-12	.	.	.	.
CCOc1ccc(OCCSc2nc3ccccc3n2CC(=O)O)cc1	0	-1	-1	-14	2	14	0	i
O=[N+]([O-])c1ccccc1/C=C/c1ccc2ccccc2n1	-263	-1	3	-21	-7	2	-2	.
Cc1ccc(N2C(=O)CC(Nc3cccc4ccccc34)C2=O)cc1 (stereo not given)	12	-4	2	-7	1	20	0	i
COC(=O)c1sc(NC(=S)NC(=O)c2cc(OC)c(OC)c(OC)c2)nc1C	-9	-3	-3	-14	-7	-13	-4	i
CCN(CC)C(=O)c1ccc(CS(=O)(=O)c2ccc(Br)cc2)cc1	-5	1	2	-11	-2	2	9	i
CC1COCC(C)N1C1=C(Cl)C(=O)c2ccccc2C1=O (stereo not given)	9	-4	5	-16	.	.	.	.
COc1ccc(OCC(=O)Nc2ccc(S(=O)(=O)N3CCCCCC3)cc2)cc1	.	0	4	-6	-4	3	-9	i
Cc1nnc(SCCn2c(N3CCC(C)CC3)nc3c2c(=O)[nH]c(=O)n3C)s1	-96	6	7	-10	-7	2	-13	i
CCCOc1ccc(C2NC(=S)NC(c3ccccc3)=C2C(=O)Nc2ccc(C)cc2)cc1OC (stereo not given)	-17	-1	-10	.	3	3	-18	i
Cc1cc(C)c(C(=O)Cn2nc(C(=O)O)c3ccccc3c2=O)cc1C	10	2	-4	-13	-5	-5	-15	.
CCOC(=O)Nc1ccc2c(c1)Sc1ccccc1N2C(=O)CCN1CCOCC1	.	-3	2	-9	-1	-6	-16	i
Cc1ccc(S(=O)(=O)N2CCCCC2)cc1NC(=O)CSc1ncccn1	.	0	2	-1	.	.	-13	.
Cc1cccc(NC(=O)c2ccc(Cl)c(S(=O)(=O)N3CCc4ccccc43)c2)n1	11	-8	-31	1	.	.	26	.
C[C@H]1CN([C@@H](C)CO)C(=O)c2cc(Br)cnc2O[C@@H]1CN(C)C(=O)Nc1ccc(C(F)(F)F)cc1	-3	4	1	-8&5	.	.	.	.

These rows are one share of the data; count on the stated rates, not on these rows.
